Screening results: PubChem BioAssay, several laboratories
UUG fidelity – yeast start codon fidelity modulation; S. cerevisiae UUG-firefly luciferase reporter, luminescence/redox ratio; activity score, % at 18.7 µM; 350,000 tested, 0.13% active;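 active = replicate mean at a twofold rise or more, about +100% in these data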;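 note: firefly luciferase made from a UUG start codon reports start codon fidelity; reporter light over untreated wells divided by growth signal over untreated wells; some hits fall short of that in this replicate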
PABP polyA inh – blocks human PABP binding to poly(A) RNA; inhibition, % at 35 µM; 290,000 tested, 1% active; fluorescence polarization;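 active = 50% or more with normal probe brightness, or confirmed in later tests; inconclusive = above 50% with abnormal brightness, or retests that disagree; inactive = below 50% or failed in later tests; about a fifth of its hits are not listed in these tables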;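 note: calls also rest on retests at 20 µM and on dose response follow-up; controls were probe without protein and protein plus probe with vehicle; some compounds called inactive have numbers as strong as hits; many hits fall short of the cut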
CSC inhib – cancer stem cell inhibition; inhibition, % at 7.5 µM; 300,000 tested, 1.1% active; cancer stem cell-like cells viability, luminescence; AID 2717;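 active = mean at 75% or more and at least half the replicates too; inconclusive = mean and replicates disagree; tested in HMLE shEcad cells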;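 note: 0% = median of negative and 100% = median of positive control wells; the first replicate is given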
Rce1 inh – inhibitors of yeast Ras-converting enzyme; Q03530; yeast membranes, quenched prenylated peptide cleavage fluorescence; calls only; 290,000 tested, 0.27% active;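 active = fall in fluorescence gain of 50% or more versus controls, with final raw signal at or below 3038400; inconclusive = same 50% fall but final raw signal above 3038400; inactive = fall in fluorescence gain under 50%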;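 note: plate controls were neutral control wells for no effect and wells lacking membranes for full effect; tested at 10 µM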
Target sequence (Q03530 whole entry, looked up): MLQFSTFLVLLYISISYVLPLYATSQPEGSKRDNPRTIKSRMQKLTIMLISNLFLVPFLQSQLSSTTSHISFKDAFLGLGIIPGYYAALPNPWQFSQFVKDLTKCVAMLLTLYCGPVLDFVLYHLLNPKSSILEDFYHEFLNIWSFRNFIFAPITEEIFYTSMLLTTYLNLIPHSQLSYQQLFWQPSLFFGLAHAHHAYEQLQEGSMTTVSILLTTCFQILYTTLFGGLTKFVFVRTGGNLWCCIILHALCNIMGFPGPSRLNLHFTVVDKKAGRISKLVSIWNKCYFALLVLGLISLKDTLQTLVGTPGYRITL
MT1-MMP act inh – blocks activation of human MT1-MMP. 360,000 tested, 0.061% active. P50281. GFP/RFP ratio change, % at 20 µM. HT1080 RFP-PRO-GFP cells, GFP/RFP ratio fluorescence, overnight; percent of plate control window, DMSO zero;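 active = GFP/RFP ratio change of at least 30% with cell ATP level not reduced by more than half and red fluorescence within 50% of control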; note: strong numbers were not always called active
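Test system: HT1080 RFP-PRO-GFP cells; Benchmarks: DMSO and RFP-L50D-GFP cell wells; Timing: cells overnight before dosing, compound overnight, 37 °C, 5% CO2; Compound: one 20 µM compound dose with 1% DMSO; Read-out: GFP/RFP fluorescence ratio.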
eIF4H inh – inhibitors of RNA binding by human eIF4H; inhibition, % at 35 µM; AID 2012; 290,000 tested, 0.94% active; Q15056; eIF4H fluorescence polarization binding assay;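 active = 50% or more with normal probe brightness, or confirmed in later tests; inconclusive = above 50% with abnormal brightness, or retests that disagree; inactive = below 50% or failed in later tests; about a fifth of its hits are not listed in these tables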;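 note: calls also rest on retests at 20 µM and on dose response follow-up; 0% = protein and probe with vehicle and 100% = probe without protein; strong numbers were not always called active; many hits fall short of the cut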
HIV Env fusion – inhibitors of HIV Env-mediated cell fusion | HeLa-JRFL Env/CEM21 cell fusion, luciferase | inhibition, % at 12.3 µM | 360,000 tested, 1.1% active;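 active = mean replicate inhibition score of at least 50 and every replicate individually at or above 50; inconclusive = only one of the two criteria met; inactive = mean below 50 and not all replicates reaching 50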;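 note: 0% = plate neutral controls and 100% = maraviroc near 300 nM; one replicate is shown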
eIF4H inh retest – also measured in eIF4H inh; calls as there; inhibition, %; compound at 20 µM; confirmation average;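 mean of two retest wells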
PABP polyA inh retest – recorded beside PABP polyA inh, whose call it bears; inhibition, %; compound at 20 µM; confirmation repeats;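 mean of two retest wells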
MT1-MMP act inh RFP – second read-out of MT1-MMP act inh, no call of its own (marks repeat the call); RFP signal change, %; measured here: RFP expression control read;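 0 = vehicle wells; hits needed this value within 50% of zero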
The depositor's hits bear a star; i = inactive; ? = inconclusive; . = not tested or not shown. The list is partial, so the mix of outcomes need not match the whole.

SMILES | UUG fidelity | PABP polyA inh | CSC inhib | Rce1 inh | MT1-MMP act inh | MT1-MMP act inh RFP | eIF4H inh | HIV Env fusion | others
O=C(COc1cc(Cl)c(Cl)cc1Cl)Nc1ccc([N+](=O)[O-])cc1Cl | -9 | -5 | -6 | i | 1 | 2 | 2 | -16
O=S(=O)(Nc1nc2ccccc2nc1Nc1ccc(N2CCOCC2)cc1)c1cc(Cl)ccc1Cl | -21 | 5 | 86* | i | -32 | -30 | ? | 6
CN1CCN(S(=O)(=O)c2ccc([N+](=O)[O-])cc2)CC1 | 11 | 1 | . | i | 3 | 0 | 0 | 1
COCC(=O)NNC(=S)Nc1cccc(C)c1C | . | 1 | -7 | i | -3 | 4 | -2 | -2
COc1ccccc1N=Cc1c(C)[nH]n(-c2ccc(C)cc2C)c1=O | . | 3 | -18 | i | 0 | 4 | 10 | -7
CN(c1ccccc1)S(=O)(=O)c1ccc(C(=O)NCc2cccnc2)cc1 | 10 | . | . | . | 1 | -1 | . | -9
C[C@H](N)c1nnc(SCc2ccc(Cl)cc2Cl)o1 | -5 | 0 | 11 | i | 2 | 2 | -11 | 24
COc1ccc(C2=NOC(C(=O)NCc3ccc(F)cc3)C2)cc1OC (stereo not drawn) | -2 | 4 | 61 | i | 9 | -7 | 3 | .
O=[N+]([O-])c1ccc(CSc2nc3ncc(Br)cc3[nH]2)cc1 | -17 | 7 | -3 | i | 2 | 2 | 41 | -16
Nc1nc(SCC(=O)Nc2ccc3c(c2)CCC3)n[nH]1 | . | -2 | -24 | i | . | . | 6 | -2
COc1cccc(N2C(=O)CC(NNc3nc4ccccc4s3)C2=O)c1 (stereo not drawn) | 8 | -4 | -3 | i | 1 | 3 | 0 | -2
Clc1ccccc1-c1nnc2sc(-c3ccc4c(c3)OCO4)nn12 | -5 | 2 | 54 | i | 2 | 9 | 8 | -241
COc1ccc(CCN2CC(C(=O)OCC(=O)N(C)CC(=O)Nc3ccccc3Cl)CC2=O)cc1OC (stereo not drawn) | -3 | . | . | . | 1 | 1 | . | -7
Cc1ccc(N2C(=O)CC(Sc3ccccc3C(=O)O)C2=O)cc1C (stereo not drawn) | . | -11 | -11 | i | 7 | 10 | 6 | 6
O=C(NCc1cccnc1)c1c(F)c(F)c(F)c(F)c1F | -24 | -17 | . | i | 1 | 7 | 2 | -5
O=C(O)c1ccccc1C(=O)Nc1n[nH]c(=S)s1 | -13 | 3 | -9 | i | 3 | 0 | -2 | .
CC(=O)Nc1ccc(S(=O)(=O)NCC(=O)OCC(=O)N2CCCCCC2)cc1 | -15 | . | -5 | . | 1 | 3 | . | .
CCc1ccc(NC(=O)c2[nH]c(C)c(C(C)=O)c2C)cc1 | -20 | 11 | 20 | i | 4 | -2 | -8 | -52
Cc1cccnc1C1=NOC(Cc2ccccc2)C(=O)N1C (stereo not drawn) | -18 | . | . | . | 2 | 6 | . | -48
COc1ccccc1-c1cc(C(=O)Nc2cccnc2Cl)no1 | 1 | -64 | -12 | i | 6 | 3 | -44 | 12
Cc1ccc(/C=N/Nc2nc3ccccc3s2)o1 | . | 0 | -7 | i | -3 | -5 | 5 | -168
Cc1cc(C)c(S(=O)(=O)N(C)Cc2cnn(C)c2)c(C)c1 | 16 | -8 | -12 | i | 1 | -1 | -7 | 13
COc1ccc(NC(=S)NC(=O)/C=C/c2ccco2)cc1 | . | 0 | -4 | i | -1 | -1 | -3 | -5
CCOC(=O)n1c(=O)n(Cc2ccc(Cl)c(Cl)c2)c2ccccc21 | . | 9 | . | i | 0 | -14 | 3 | .
Clc1ccccc1NCSC1=NCCS1 | -23 | . | . | . | 2 | 3 | . | 0
CCOC(=O)CC1C(=O)NCCN1S(=O)(=O)c1ccc(OC)cc1 (stereo not drawn) | . | -5 | -8 | i | -1 | 4 | -12 | 8
Cc1cc(-c2nnc(CCC(=O)NC(C)(C)C34CC5CC(CC(C5)C3)C4)o2)no1 | 3 | 10 | 12 | i | -6 | -3 | -3 | 5
CS(=O)(=O)N1CCN(C2C3CC4CC(C3)CC2C4)CC1 (stereo not drawn) | . | 1 | -14 | i | -1 | 3 | 3 | 1
CC(C)(C)c1ccc(C2C(C#N)=C(N)Oc3n[nH]c(-c4cccnc4)c32)cc1 (stereo not drawn) | -35 | 7 | -29 | i | 11 | -10 | -6 | 3
O=c1c2nncn2c2cc(C(F)(F)F)ccc2n1CCNc1ncc(C(F)(F)F)cc1Cl | -26 | -10 | 10 | i | 1 | -2 | -6 | -68
O=C(CSc1nnc(Cc2ccccc2)o1)Nc1ccc(Br)cn1 | -19 | -3 | -1 | i | 4 | 3 | -5 | 16
CC(C)C12CN3CC(C(C)C)(CN(C1)C31C(=O)Nc3ccccc31)C2=O (stereo not drawn) | -14 | 10 | -9 | i | -1 | 4 | 0 | -50
O=C(O)CCCCNCc1ccccc1 | 5 | 14 | 1 | i | 1 | 2 | 4 | -64
CC(=O)C1CCC2C3CC(C)=C4CC(O)CCC4(C)C3CCC12C (stereo not drawn) | -6 | . | . | . | 1 | 3 | . | -18
Cc1ccc(-c2nnc(SCC(=O)Nc3ccc(S(=O)(=O)N4CCCCCC4)cc3)o2)cc1 | . | -5 | . | i | 8 | 1 | -3 | .
CCOc1ccc(NS(=O)(=O)c2ccc(C(=O)NCC3(N(C)C)CCCCC3)cc2)cc1 | -8 | . | -1 | i | -1 | -4 | . | -16
COc1ccccc1CNCCS(=O)(=O)NN1CCOCC1 | -10 | . | . | . | 5 | 4 | . | -37
CN1CCn2cnc(C(=O)N[C@@H](Cc3ccccc3)C(=O)OC(C)(C)C)c2C1=O | -16 | . | . | . | 5 | 6 | . | 5
CCCn1c(NC(=O)c2ccc(Cl)c(S(=O)(=O)N3CCCC3)c2)nc2ccccc21 | -16 | 11 | 38 | i | -21 | -29 | 12 | 59
Cc1ccc(/C(O)=C2\C(=O)C(=O)N(C)C2c2ccc([N+](=O)[O-])cc2)cc1 (stereo not drawn) | -8 | 2 | -8 | i | 1 | 1 | -11 | 10
CCOC(=O)C(C(C)=O)=C1SC2CS(=O)(=O)CC2S1 (stereo not drawn) | 0 | -2 | -37 | i | -3 | 2 | -3 | .
COc1ccc(-c2oc3ccccc3c2C(=O)OCc2ccccc2)cc1 | -21 | -2 | -16 | i | -1 | 1 | -5 | 4
N=C1c2ccccc2CN1NC(=O)c1cccc(S(=O)(=O)N2CCOCC2)c1 | -13 | -6 | -11 | i | -2 | 1 | -7 | -10
COc1ccc(CN2CC(=O)N3[C@H]4c5ccc(OC)cc5OC[C@@H]4[C@H](c4ccccc4)[C@]3(C)C2=O)cc1 | 0 | . | -1 | . | -10 | -5 | . | 32
Cc1ccc(S(=O)(=O)N(C)C)cc1-n1c(SCC(=O)Nc2ccc(F)cc2)nc2ccccc2c1=O | . | -3 | 28 | i | 1 | -12 | -4 | -11
CC(C)CCN1CCC(CN2C(=O)C(=O)NC[C@@H]2CC(C)C)CC1 | -7 | . | . | . | 8 | 6 | . | -65
CC(C)(C)c1ccc(OCCCC(=O)N2CCOCC2)cc1 | . | 0 | -4 | i | 2 | 4 | 3 | 12
COCOCCn1cc(CN2CCS(=O)(=O)N(Cc3ccc(-c4cccc(N(C)C)c4)cc3)C(CC(C)C)C2=O)nn1 (stereo not drawn) | -4 | . | . | . | 3 | 6 | . | -2
C#Cc1ccc([C@@H]2C=C(C(=O)N3CCOCC3)O[C@H](OCC)[C@H]2CCCO)cc1 | -3 | -8 | 2 | i | 3 | 7 | -2 | 13
CCc1c(C(C)S(=O)(=O)c2ccc(C)cc2)[nH]c(=O)n1-c1ccc(OC(F)(F)F)cc1 (stereo not drawn) | -2 | -2 | 0 | i | -12 | -7 | 78 | . | eIF4H inh retest=-5;PABP polyA inh retest=8
CN(CCNC(=O)CN1CCN(Cc2ccccc2Cl)C1=O)Cc1ccccc1 | -8 | -2 | -6 | i | 0 | -2 | 13 | .
COc1ccccc1N1CCN(S(=O)(=O)c2ccccc2F)CC1 | -1 | 3 | -8 | i | 5 | 6 | -6 | .
O=C(Cn1nnc(-c2ccc3c(c2)OCO3)n1)N1CCOCC1 | -11 | 1 | 1 | i | 3 | 1 | -7 | .
O=P(c1ccccc1)(c1ccccc1)C(c1ccco1)N1CCOCC1 (stereo not drawn) | 2 | -6 | -1 | i | 2 | 3 | 10 | -33
CCOC(=O)Nc1cc2c(C)cc(=O)oc2cc1C | . | 1 | -9 | i | 1 | 5 | -9 | .
Cc1cccc(-c2noc(CN(C(=O)C(c3ccccc3)c3ccccc3)C(C)C)n2)c1 | -12 | -10 | 24 | i | -34 | -32 | 3 | -4
Fc1cc(F)cc(-c2oncc2-c2nnnn2-c2ccccc2)c1 | -10 | 6 | 12 | i | 4 | 5 | 5 | -55
COc1ccc(N(C(=O)c2cccnc2)S(=O)(=O)c2cccs2)cc1 | 8 | -4 | -11 | i | 1 | 0 | -3 | 6
N#CCCN(Cc1cccnc1)C(=S)NC(=O)C1CC1 | . | 0 | -5 | i | . | . | -4 | .
COc1ccccc1NS(=O)(=O)c1ccc(C(=O)NCc2ccco2)cc1 | -9 | . | -5 | . | 2 | -5 | . | 12
Additional records:
SMILES | UUG fidelity | PABP polyA inh | CSC inhib | Rce1 inh | MT1-MMP act inh | MT1-MMP act inh RFP | eIF4H inh | HIV Env fusion | others
Cc1ccc(N2C(=O)N(CC(=O)Nc3cc(C)cc(C)c3)C(=O)C2C)cc1 (stereo not drawn) | . | 16 | -5 | i | 1 | -6 | -2 | 13
COc1ccc(OCCOc2ccccc2[N+](=O)[O-])cc1 | . | -8 | -6 | i | 5 | 4 | -4 | -12
CC(=O)OC(C)C[N+](C)(C)C (stereo not drawn) | -30 | -6 | -10 | i | 4 | 7 | -7 | 17
Cc1ccc(C(C)C)c(OCC(=O)N/N=C2\CC(=O)CC(C)(C)C2)c1 | -2 | 5 | -11 | . | 1 | -2 | 11 | -21
O=C(CN(c1cccc(C(F)(F)F)c1)S(=O)(=O)c1ccc(Cl)c([N+](=O)[O-])c1)NCc1ccccc1Cl | -8 | 6 | 101* | i | -1 | -5 | -9 | .
CC1=C(C(=O)Nc2cc(C(=O)N(C)Cc3ccccc3)ccc2C)SCCO1 | -5 | 11 | -10 | i | 0 | -2 | -5 | 7
O=C(O)C1CN(C(=O)c2cccc(Br)c2)C1 | . | -2 | 0 | i | 2 | 2 | 8 | 10
O=C(CCc1ccccc1)Nc1ccc(F)cc1F | -11 | 2 | 3 | i | 3 | 0 | -9 | .
COc1ccc(-c2nc(NC(=O)c3c(C)noc3C)sc2C)cc1 | -12 | . | . | . | -8 | -23 | . | 10
CCOC(=O)C1=C(C)Nc2ccccc2N=C1NC(=O)CCCN1C(=O)c2ccccc2C1=O | -24 | -1 | 18 | i | 5 | 1 | -10 | -4
O=C(c1ccccc1)c1ccc(N2CCN(C(=O)c3ccc(F)cc3F)CC2)c(F)c1 | -8 | . | . | . | -4 | -21 | . | -11
